Compound activity: PubChem, several laboratories
Ecoli rRNA inh: selective bacterial rRNA inhibition in E. coli; E. coli WT GFP vs humanized-ribosome RFP mutants, fluorescence, 24 h; hits give low values; DMSO median 0, no signal -100; GFP signal change (wild-type ribosome), % (test concentration not listed); 350,000 compounds, 1.6% hits; AID 720706;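 active = significant combined selectivity score with lowered wild-type GFP, culture density cut under 30%, mutant RFP and density less affected; inactive = any of these conditions unmet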; note: one replicate is shown; some compounds called inactive have numbers as strong as hits
FGF22 binding: shifts melting point of recombinant human FGF22; 340,000 compounds, 1.5% hits; recombinant FGF22 thermal shift, SYPRO orange fluorescence; percent of sucrose octasulfate shift, DMSO zero; calls only at 9.99 µM; Q9HCT0; AID 651658;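 active = melting point raised past a set limit in the mean and every replicate; three in four hits are not shown here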
Target sequence (Q9HCT0 whole entry, looked up): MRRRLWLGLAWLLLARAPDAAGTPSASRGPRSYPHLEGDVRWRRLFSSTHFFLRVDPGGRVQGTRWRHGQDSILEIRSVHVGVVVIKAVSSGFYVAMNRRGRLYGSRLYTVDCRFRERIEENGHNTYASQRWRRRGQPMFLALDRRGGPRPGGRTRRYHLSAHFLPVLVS
E coli growth: inhibitors of Escherichia coli growth | AID 1053175 | OD600 absorbance (test concentration not listed) | OD600, 23 h; hits give low values | 330,000 compounds, 0.21% hits;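 active = OD600 absorbance below the run mean of sample wells minus 3.6 SD, in any replicate, cut at about 0.56 in these data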;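 note: stock transfer was 300 nL into about 60 µL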
HNF4A DNA FP: change in binding of human HNF4 alpha to DNA. AID 1224865. HNF4a-FITC DNA binding, fluorescence polarization, 1 h. activity change, % at 10 µM. 360,000 compounds, 0.3% hits. P41235; in the data active = activity change above about 30%, passing the limit was not always enough;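 note: controls were the assay level and a saturating level of protein; the project sought stronger binding though the title names inhibitors; some compounds called inactive have numbers as strong as hits; positive values seem to mean higher polarization but the record does not say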
Target sequence (P41235 whole entry, looked up): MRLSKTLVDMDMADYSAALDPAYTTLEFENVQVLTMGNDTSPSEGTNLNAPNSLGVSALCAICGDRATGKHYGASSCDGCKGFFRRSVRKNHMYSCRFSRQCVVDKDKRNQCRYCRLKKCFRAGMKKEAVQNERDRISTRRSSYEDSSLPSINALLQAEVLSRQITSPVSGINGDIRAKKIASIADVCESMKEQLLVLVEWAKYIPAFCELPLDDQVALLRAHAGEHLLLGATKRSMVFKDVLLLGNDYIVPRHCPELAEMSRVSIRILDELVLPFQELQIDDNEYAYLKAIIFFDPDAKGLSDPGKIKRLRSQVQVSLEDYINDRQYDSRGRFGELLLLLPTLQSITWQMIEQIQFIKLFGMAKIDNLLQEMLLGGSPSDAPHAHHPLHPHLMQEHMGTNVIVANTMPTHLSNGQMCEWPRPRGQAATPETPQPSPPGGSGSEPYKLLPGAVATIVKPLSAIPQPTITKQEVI
AF4-AF9 inh: inhibitors of human MLL-AF4/AF9 interaction; P42568; AlphaScreen, biotin-AF4 peptide binding to FLAG-AF9; inhibition, % at 10 µM; 350,000 compounds, 0.47% hits;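 active = every replicate reaching a set inhibition limit, whatever the replicate mean, cut at about 25% in these data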;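 note: 0% = plate neutral control median and 100% = total signal loss; the record names both 10 and 1 µM as test concentration; the first replicate is given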
ALR inh: blocks human ALR sulfhydryl oxidase activity | 290,000 compounds, 3.8% hits | AID 485317 | purified ALR, DTT oxidation, H2O2 HRP-luminol luminescence | inhibition, % (no concentration beside the values) | P55789;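 active = mean and each replicate at 75% or more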;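 note: stock transfer was 7.5 nL into about 7.5 µL; 0% = neutral wells and 100% = wells with inactivated enzyme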
Target sequence (P55789 whole entry, looked up): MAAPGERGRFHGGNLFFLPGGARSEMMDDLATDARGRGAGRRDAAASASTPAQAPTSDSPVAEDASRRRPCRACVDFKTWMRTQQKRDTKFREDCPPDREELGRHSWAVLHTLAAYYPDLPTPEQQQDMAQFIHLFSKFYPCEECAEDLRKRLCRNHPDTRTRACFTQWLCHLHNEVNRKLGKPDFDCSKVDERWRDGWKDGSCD
Vif TR-FRET: HIV-1 Vif–A3G interaction blockers – biochemical, TR-FRET, GST-Vif 1-94, biotin-A3G peptide, dose response retest, primary screen (AID 1117319); inhibition, %, or IC50 in µM where a hit was titrated; 260,000 compounds, 0.57% hits; TR-FRET GST-Vif / biotin-A3G peptide binding; higher % means a stronger effect; test concentration not given here; strong numbers were not always called active;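 active = above the screen mean plus three standard deviations and confirmed in dose response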;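 note: Vif residues 1-94 fused to GST binding biotinylated APOBEC3G peptide 110-148; 0% = full assay without inhibitor and 100% = GST in place of GST-Vif; retest series ran down from 100 µM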
Ecoli rRNA inh OD600: also measured in Ecoli rRNA inh; calls as there; OD600 change, %; measured here: OD600 growth;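 optical density of the mix in the first replicate; 0 = DMSO median and -100 = no signal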
Ecoli rRNA inh RFP: further read-out of Ecoli rRNA inh, marked with its call; RFP signal change, %; measured here: RFP humanized mutant strains;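 first replicate; 0 = DMSO median and -100 = no signal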
* hit, by the source's call; i = inactive; . = no result given; & = joins results of further samples. Not all compounds are listed (hit frequency here may not be typical).

SMILES	Ecoli rRNA inh	Ecoli rRNA inh OD600	Ecoli rRNA inh RFP	FGF22 binding	E coli growth	HNF4A DNA FP	AF4-AF9 inh	ALR inh	Vif TR-FRET
CSc1ccccc1C(=O)Nc1nc2ccccc2c(=O)[nH]1	8.2	9.4	0.3	i	0.663	-0.2	-1.8	-0.5	-1.6%
COc1ccc(CC(=O)N2CC(=O)N(CCc3ccccc3)C(=O)C2)cc1	.	.	.	.	0.753	1.6	.	-7.7	-7.8%
COC(=O)Cc1ccc(NC(=S)NCc2ccc(OC)cc2)cc1	-9.5	-4.1	1.4	i	0.664	-2.5	-0.8	-5.6	-4.1%
CC(=O)N1[C@@H]2Cn3c(ccc(-c4cccnc4)c3=O)[C@H]1[C@@H](C(=O)NC1Cc3ccccc3C1)[C@@H]2CO	1.0	6.6	-0.5	i	.	.	-2.3	.	.
CCN1C/C(=C\c2cc(OC)c(OC)c(OC)c2)C2=NN(c3ccccc3)C(c3cc(OC)c(OC)c(OC)c3)C2C1 (centres undefined)	10.6	10.9	3.1	i	.	-2.6	-14.1	.	.
C[C@H]1[C@@H](c2ccccc2)Oc2ccc(Cl)cc2S(=O)(=O)N1Cc1cccc(Cl)c1	5.4	7.6	-5.4	i	.	.	-0.9	.	.
Nc1c(C(=O)O)sc2nc(-c3ccc(F)cc3)cc(-c3ccccc3)c12	9.9	2.9	9.7	i	.	18.4	6.4	21.3	4.9%
COc1ccc(Cn2c(=S)[nH]c3cc(C(=O)N4CCCCC4)ccc3c2=O)cc1	5.5	18.0	-2.2	i	0.696	-0.1	-1.6	9.3	1.2%
Cn1cc(C(=O)N/N=C/c2ccc(Br)c([N+](=O)[O-])c2)c2ccccc21	-0.7	10.8	3.1	i	.	1.0	0.5	-10.5	-0.7%
CC1=C(C(=O)Nc2ccccc2)C(c2ccc(C)o2)n2ncnc2N1 (centres undefined)	.	.	.	.	0.7	-0.1	.	12.0	20.3%
CCCCN(C(=O)CSc1nnc(-c2ccccc2OC)n1C)c1c(N)n(Cc2ccccc2)c(=O)[nH]c1=O	5.4	-5.5	-1.7	i	.	-1.0	-2.4	-22.3	.
CCCC#Cc1cnc2c(c1)C(=O)N([C@H](C)CO)C[C@H](C)[C@@H](CN(C)C(=O)Nc1cc(F)ccc1F)O2	-3.0	-0.9	-0.3	i	.	.	-3.1	.	.
O=c1cc(-c2ccccc2)[nH]n1-c1ccccc1	15.0	-21.1	5.5	i	0.678	1.1	0.4	.	0.5%
COc1ccc(N2CCN(C(=O)c3ccc(NC(=O)C4=CSCCO4)cc3)CC2)cc1	.	.	.	.	0.714	-2.8	.	40.7	.
Cc1ccc(C)c(NC(=O)CSc2ccc(-c3ccco3)nn2)c1	10.4	-0.1	-4.4	i	0.697	-4.3	-7.3	0.6	-10.1%
C[C@H](CO)N1C[C@H](C)[C@@H](CN(C)C(=O)Nc2ccccc2)Oc2ncc(C3=CCCCC3)cc2C1=O	-0.2	2.3	2.9	i	.	.	1.7	.	.
O=c1cc(-c2ccccc2)ss1	5.6	13.4	0.2	i	0.669	-1.4	-0.9	.	-2.2%
COC(=O)C[C@@H]1CC[C@H]2[C@@H](COc3ccc(NC(=O)Nc4ccccc4C)cc3C(=O)N2C)O1	-1.6	-3.0	-1.2	i	.	.	0.2	.	.
O=C(Cn1ccc2ccccc2c1=O)Nc1ccc2c(c1)OCO2	.	.	.	.	0.678	-1.4	.	-16.9	0.9%
CCOc1ccc(-c2nnc3ccc(SCC(=O)Nc4nc5ccc(C)cc5s4)nn23)cc1	.	.	.	i	0.661	1.9	-0.6	4.9	.
CC(C)N1CCN(Cc2cccn2-c2nccs2)CC1CCO (centres undefined)	17.1	14.1	1.7	i	0.718	-3.3	1.8	-5.8	21.0%
CC1Cc2ccccc2N1C(=O)COC(=O)c1ccc([N+](=O)[O-])o1 (centres undefined)	.	.	.	i	0.663	-0.2	4.2	-27.5	.
CCCCN1C(=O)C(CC(=O)NCCN2CCOCC2)CC(C(=O)N2CCCCCC2)=C1C (centres undefined)	.	.	.	i	.	5.5	-2.7	.	.
COc1ccccc1NC(=S)NNC(=O)c1cc(C)n(C)n1	.	.	.	.	0.722	-2.8	.	77.0*	5.9%
CCOC(=O)C1=C(COC(=O)c2ccc(Cl)c(S(=O)(=O)N3CCOCC3)c2)NC(=O)NC1C (centres undefined)	.	.	.	i	.	-1.6	0.1	.	.
CCS(=O)(=O)Nc1ccc2c(c1)C(=O)N(C)[C@H]1CC[C@H](CC(=O)NCc3ccc(OC)cc3)O[C@@H]1CO2	-0.5	8.7	-2.5	i	.	.	-0.9	.	.
O=C(NCCN1CCCC(O)C1)c1cc(COc2c(F)cccc2F)on1 (centres undefined)	12.4	12.5	3.5	i	0.634	5.7	-0.8	-0.8	-5.9%
CCN(CC)CCC(c1ccc(N(C)C)cc1)c1c(OC)cc(OC)c2ccc(=O)oc12 (centres undefined)	.	.	.	.	0.664	0.3	.	99.5*	27.9%
COC(=O)c1nc2n(n1)C(c1ccc([N+](=O)[O-])cc1)C(C(=O)Nc1ccc(Cl)cc1)=C(C)N2 (centres undefined)	8.6	11.8	-5.4	i	0.673	0.7	-3.3	7.1	-1.6%
CC(C)OP(=O)(OC(C)C)C(NC(=O)c1ccccc1Br)C(N)=O (centres undefined)	8.4	13.9	2.5	i	0.659	0.7	.	3.5	7.9%

Quoted from the listing:
CC(C)OP(=O)(OC(C)C)C(NC(=O)c1ccccc1Br)C(N)=O (centres undefined) – ALR inh: 3.5
COC(=O)c1nc2n(n1)C(c1ccc([N+](=O)[O-])cc1)C(C(=O)Nc1ccc(Cl)cc1)=C(C)N2 (centres undefined) – Ecoli rRNA inh: 8.6

Additional structures.
SMILES	Ecoli rRNA inh	Ecoli rRNA inh OD600	Ecoli rRNA inh RFP	FGF22 binding	E coli growth	HNF4A DNA FP	AF4-AF9 inh	ALR inh	Vif TR-FRET
Cc1cccc(C)c1-n1c(SCC(=O)NCc2ccco2)nc2ccccc2c1=O	.	.	.	.	0.792	-1.0	.	.	3.5%
C/C=C/c1ccc(OCCCCn2cncn2)c(OC)c1	.	.	.	.	0.686	-0.5	.	-43.3	5.3%
COc1cccc(NC(=O)C2CCN(Cc3cnn(-c4ccccc4)c3-n3cccc3)CC2)c1	.	.	.	.	0.72	2.1	.	-4.2	5.5%&-5.2%
COc1ccc2c(c1)-c1ccccc1S(=O)(=O)N2C(C)=O	-0.7	-1.9	0.4	i	0.658	3.7	-8.7	69.3	15.0%
CCN1CCN(Cc2ccc(NC(=O)Nc3ccccc3OC)cc2)CC1	10.9	-5.5	-7.8	i	0.762	0.1	0.1	-34.1	1.8%
O=C(NCc1ccncc1)C(=O)NCC1OCCN1S(=O)(=O)c1ccc(Cl)cc1 (centres undefined)	-4.0	6.0	-2.4	i	0.694	3.8	-8.7	-2.5	-5.9%
NC(c1ccccc1)c1csc(NC(=O)Nc2cccc(C(F)(F)F)c2)n1 (centres undefined)	-62.7	-81.2	-18.9	i	.	-1.3	11.2	.	.
C=CCNC(=S)Nc1cc(C)ccn1	7.5	4.4	3.3	i	0.67	-6.1	-7.0	9.0	2.9%
Cc1ccc(C2=NOC(C)(c3nnc(-c4ccccc4)o3)C2)cc1 (centres undefined)	.	.	.	.	0.68	2.6	.	-4.8	.
CCN(CC)CCCNC(=S)N(Cc1ccco1)Cc1cc2cc3c(cc2[nH]c1=O)OCCO3	19.4	1.5	-0.9	i	0.701	.	2.4	-4.9	.
Cc1occc1-c1nnc(SCC(=O)Nc2nc(C(C)(C)C)cs2)o1	-33.5	-30.4	-8.0	i	0.738	-0.5	4.5	-3.4	-5.1%
Cn1cnc(CCNC(=O)C[C@H]2CC[C@H]3[C@@H](COC[C@H](O)CN3C(=O)C3CCCC3)O2)c1	0.1	-0.7	10.5	i	.	.	-1.9	.	.
CC1=C(C(=O)N(C(C)C)C(C)C)CC(CC(=O)NC2CCCC2)C(=O)N1CCC1=CCCCC1 (centres undefined)	-12.4	-15.2	-1.8	i	.	-1.4	0.3	.	.
CC(=O)NC(c1cccc(F)c1)c1nc(-c2csc3ccccc23)cs1 (centres undefined)	1.0	-43.5	11.6	i	.	5.5	1.4	.	.
CCC(=O)N1CCN(c2ccc(Cl)cc2NC(=O)c2ccc3c(c2)OCCO3)CC1	.	.	.	.	0.678	2.7	.	-4.8	-2.7%
CC(C)(C)c1ccc(CSc2ccc(S(=O)(=O)N3CCOCC3)cn2)cc1	17.4	1.1	4.1	i	0.72	1.0	-0.8	-9.8	1.2%
COC(=O)c1ccc(NC(=O)Nc2ccc([N+](=O)[O-])cc2)cc1	-56.8	-78.1	-16.6	i	0.425*	-2.4	-1.2	2.3	7.1%
COc1cc(NC(=S)N2CCC(C(N)=O)CC2)cc(OC)c1	14.2	3.4	-1.5	i	0.684	-3.0	2.1	-35.6	3.5%
COCC#Cc1ccc2c(c1)O[C@H](CN(C)C(=O)C1CCC1)[C@@H](C)CN([C@H](C)CO)S2(=O)=O	-5.0	3.1	-2.1	i	.	.	1.5	.	.
CCOc1ccccc1NC(=O)C1CCC(=O)N1S(=O)(=O)c1ccc(C)cc1 (centres undefined)	9.3	-2.6	0.3	i	0.678	-0.5	-0.6	-8.1	.
C=CCNC(=O)C1CC(=O)N(c2ccc(OCC(=O)Nc3ccc(CC)cc3)cc2)C1 (centres undefined)	13.6	13.1	1.7	i	0.692	1.9	-2.0	-1.2	.
COc1ccc(C(=O)Oc2cc(C)[nH]c(=O)c2[N+](=O)[O-])cc1	0.4	12.7	-4.3	i	0.704	-2.7	-2.7	-15.1	1.5%
O/N=C/c1cccc[n+]1CCCCCC[n+]1ccccc1/C=N/O	10.5	17.0	2.6	i	.	3.8	-9.6	-14.1	.
O=C(NCCc1ccccc1)C(=O)NCC1OCCN1S(=O)(=O)c1ccc(F)cc1 (centres undefined)	-0.1	3.3	-5.1	i	0.796	5.8	1.5	.	.
Cc1[nH]c2ccccc2c1-c1nc2ccccc2[nH]c1=O	-1.6	-3.2	-0.4	i	0.67	0.4	0.0	-2.1	.
Cn1ncc(Cl)c1C(=O)NC1C2CC3CC(C2)CC1C3 (centres undefined)	-17.9	-20.9	-5.1	i	0.697	0.0	-3.4	-8.9	.
CC=Cc1ccc2n(c1=O)C[C@H]1[C@H](CO)[C@@H](C(=O)Nc3ccc(-c4ccccc4)cc3)N(C(=O)CC)[C@@H]21 (mixture of isomers)	2.0	-27.9	24.9	i	.	.	9.9	.	.
Cc1ccc2nc(NC(=O)c3cccc(-c4cc5ccccc5oc4=O)c3)sc2c1	.	.	.	.	0.633	.	.	-6.2	-2.0%
COC(=O)C=C1CCC2C3CCC4=CC(=O)C(Br)CC4(C)C3C(=O)CC12C (centres undefined)	-9.6	-41.9	7.6	i	.	0.6	-2.0	.	0.1%
COc1ccc(NC(=O)c2nc3ccccc3s2)cc1	-3.3	-2.7	-3.0	i	0.654	0.3	-3.8	-1.1	8.4%
Cc1ccc(NC(=O)CCCCCCCCCCC2COCCO2)c(C)c1 (centres undefined)	.	.	.	.	0.692	-2.1	.	2.3	.
C[C@H](CO)N1C[C@H](C)[C@H](CN(C)C(=O)NC2CCCCC2)OCCCC[C@H](C)Oc2ccc(NC(=O)c3ccncc3)cc2C1=O	0.3	2.6	1.3	i	.	.	-2.0	.	.
COc1ccc(NC(=O)Nc2ccc3c(c2)CC(=O)N([C@H](C)CO)C[C@@H](C)[C@H](CN(C)C)O3)cc1	-2.2	-5.2	-2.7	i	.	.	1.3	.	.
C[C@@H]1CN([C@@H](C)CO)C(=O)c2cccc(NC(=O)c3ccncc3)c2O[C@@H]1CN(C)S(=O)(=O)c1cn(C)cn1	3.7	3.7	-0.7	i	.	.	-1.8	.	.
